Screening results: PubChem, National Center for Advancing Translational Sciences (NCATS)
MARV entry inh: blocks Marburg virus binding to or entry into cells | Marburg virus pseudotyped entry inhibition, cell reporter; control for the full effect not named in the record; about a third of the inactives were read at about 46 µM | Potency, µM (titrated, usually from 37.8 µM), without a hit: at the highest dose activity change, negative = inhibition, most hits filed as inhibitors | 300,000 tested, 1.8% active | AID 540276; active = well fitted inhibition curve with a large enough effect; inconclusive = small, poorly fitted or top-dose-only effect, or effect the other way; inactive = flat fitted curve, though single readings scatter; tested in HEK293 cells; about a fifth of its hits are not listed in these tables; also: % is scaled to controls: 0 for no effect and ±100 for the full control effect; luciferase read-out
Cruzain noTriton: cruzain (T. cruzi) inhibition without detergent; P25779; purified cruzain, Z-FR-AMC fluorescence, no detergent; Potency, µM, without a hit: max response, negative = inhibition, hits mostly inhibitors; 200,000 tested, 2.3% active;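 also: plate controls were enzyme without inhibitor for no effect and buffer without enzyme for full effect; nearly all actives have a fitted effect of over 40% in size; top concentration of the series not given in the record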
Target sequence (P25779 123-467 limits assumed): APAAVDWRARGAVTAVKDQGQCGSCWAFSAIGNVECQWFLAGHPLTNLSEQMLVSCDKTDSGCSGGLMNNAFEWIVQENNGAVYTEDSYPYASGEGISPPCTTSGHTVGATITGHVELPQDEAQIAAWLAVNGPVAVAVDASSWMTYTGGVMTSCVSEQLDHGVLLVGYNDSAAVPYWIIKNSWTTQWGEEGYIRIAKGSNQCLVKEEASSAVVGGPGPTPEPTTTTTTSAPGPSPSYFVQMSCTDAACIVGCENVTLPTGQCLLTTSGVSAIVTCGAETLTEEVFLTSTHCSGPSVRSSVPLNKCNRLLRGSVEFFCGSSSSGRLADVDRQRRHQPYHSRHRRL
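Purified cruzain at 1.5 nM, pre-incubated 15 min with compound at room temperature in 100 mM sodium acetate pH 5.5, 5 mM DTT, 0.00005% Triton X-100. Reaction started with 2 uM Z-FR-AMC; AMC fluorescence increase over 60 s gives rate.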
NS1 inh: influenza NS1 inhibition; S. cerevisiae slowed by influenza A NS1, growth recovery by OD600; Potency, µM (doses to about 46.1 µM), without a hit: top-dose activity, positive = more growth; 270,000 tested, 0.4% active; active means well fitted rising curve with a large enough effect; inconclusive means small, poorly fitted or top-dose-only effect; inactive means no such curve, though single readings can be large or run the other way; also: nearly all actives have a fitted effect of over 50% in size
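Compounds were scored for reversing the slow growth caused by influenza A NS1 in S. cerevisiae, measured by optical density at 600 nm. Assay medium contained 2% galactose at pH 6.0; NS1-free yeast of the same strain were the positive control.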
SARS PLpro yeast: SARS-CoV PLP inhibition in yeast; S. cerevisiae expressing SARS-CoV PLpro, growth rescue; control for the full effect not named in the record; Potency, µM (doses to about 32.9 µM), inactives show at the highest dose activity, positive = growth rescue; 330,000 tested, 0.19% active; active means well fitted rising curve with a large enough effect; inconclusive means small, poorly fitted or top-dose-only effect; inactive means no such curve, though single readings can be large or run the other way; also: 0% is about no effect; nearly all actives have a fitted effect of over 55% in size; growth read by luminescence after 48 h
LASV entry inh: Lassa virus entry inhibition | Lassa virus pseudotype entry inhibition, cell reporter; control for the full effect not named in the record | Potency, µM (titrated, usually from 37.9 µM), for the others: top-dose activity change, negative = inhibition, actives largely listed as inhibitors | 300,000 tested, 1.2% active; active means well fitted inhibition curve with a large enough effect; inconclusive means small, poorly fitted or top-dose-only effect, or effect the other way; inactive means flat fitted curve, though single readings scatter; tested in HEK293 cells; also: % is scaled to controls: 0 for no effect and ±100 for the full control effect; nearly all actives have a fitted effect of over 50% in size; luciferase read-out
RE007 growth inh: less growth of the S. pombe RE007 Vpr strain. S. pombe RE007 Vpr strain, BacTiter-Glo ATP luminescence, 24 h; control for the full effect not named in the record. Potency, µM (series often up to 92.2 µM), without a hit: at the highest dose activity change, negative = less growth. 360,000 tested, 0.21% active; active = well fitted falling curve with a large enough effect; inconclusive = small, poorly fitted or top-dose-only effect; inactive = no such curve, though single readings can be large or run the other way;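 also: % is scaled to controls: 0 for no effect and ±100 for the full control effect; nearly all actives have a fitted effect of over 50% in size; the assay follows cell death caused by Vpr and the record does not say whether a fall means rescue or toxicity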
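Fission yeast RE007 carrying one integrated HIV-1 vpr copy, seeded at OD 0.01 in PMG+AL medium with 23 nL pinned compound. Grown 24 h at 30 degrees; viability read by BacTiter-Glo luminescence after 5 min.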
2A StopGo: lowers the luciferase signal of an FMDV 2A StopGo reporter; 410,000 tested, 1.2% active; AID 1159524; human cells with a luciferase reporter of 2A StopGo recoding; control for the full effect not named in the record; Potency, µM (doses to about 57.9 µM), for inactives: at the highest dose signal change, negative = less light; active = well fitted falling curve with a large enough effect; inconclusive = small, poorly fitted or top-dose-only effect; inactive = no such curve, though single readings can be large or run the other way; tested in HEK293T cells; also: % is scaled to controls: 0 for no effect and ±100 for the full control effect; nearly all actives have a fitted effect of over 45% in size; luciferase light after 4 h
Cruzain Triton: cruzain (T. cruzi) inhibition with detergent. P25779. purified cruzain, Z-FR-AMC fluorescence, 0.01% Triton. Potency, µM, inactives show max response, negative = inhibition, most hits filed as inhibitors. 200,000 tested, 0.43% active;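 also: plate controls were neutral wells for no effect and buffer without enzyme for full effect; nearly all actives have a fitted effect of over 40% in size; top concentration of the series not given in the record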
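Detergent-containing run (0.01% Triton X-100) in acetate buffer pH 5.5 with 5 mM DTT: enzyme at 1.5 nM final, 15 min compound preincubation at room temperature, then 2 uM Z-FR-AMC substrate. Activity taken as 60 s fluorescence increase at 360/450 nm.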
Numbers without * were called inactive; ? = inconclusive; nt = not tested or not shown; [ ] = remark or other dose. Unless noted, calls follow the shape of the dose curve; as a rule, active = well fitted curve in the direction sought with a large enough effect; inconclusive = small, poorly fitted or top-dose-only effect, or another doubt; inactive = no such curve, though single readings can be large; an effect the other way counts as inactive or inconclusive. Potency is read from the fitted curve at half-maximal effect.

SMILES	MARV entry inh	Cruzain noTriton	NS1 inh	SARS PLpro yeast	LASV entry inh	RE007 growth inh	2A StopGo	Cruzain Triton
COc1ccc(OC)c(C2CC(=O)N3CN(c4cccc(Cl)c4)CSC3=C2C#N)c1 (stereo not drawn)	5%	?	-11%	2%	nt	-11%	0%	-6.0%
Cc1cccc(N2CCN(C(=O)c3ccncc3)CC2)c1C	?	1%	0%	2%	?	-15%	-28%	9.7%
CNC(=O)CN(c1ccc2c(c1)OCCO2)S(C)(=O)=O	2%	-9%	7%	6%	17%	15%	-9%	2.2%
CN(C)S(=O)(=O)N1CCN(CC(O)COc2ccc(-c3ccccc3)cc2)CC1 (stereo not drawn)	nt	nt	-36%	3%	nt	2%	?	nt
COCCn1c(=O)[nH]c2cc(C(=O)N3CCN(c4cccc(C)c4C)CC3)ccc2c1=O	-11%[46.1 µM]	nt	1%	-10%	-18%[46.1 µM]	9%	-6%	nt
COc1ccc(Cn2c(=S)[nH]c3cc(C(=O)NCCCN4CCOCC4)ccc3c2=O)cc1	-18%[46.1 µM]	nt	-4%	0%	?	5%	-6%	nt
CCCN1C(=O)c2cc(C(=O)NC3CCCC3)ccc2C1O (stereo not drawn)	nt	-1%	0%	2%	nt	4%	3%	4.2%
Cc1cc(=O)[nH]c(Nc2cccc(C(F)(F)F)c2)n1	-28%	-15%	9%	1%	-9%	-12%	-8%	-1.1%
CC(C)C(=O)NC(=O)[C@@H]1CCCN1C(=O)/C=C/c1ccccc1	-2%	1%	-3%	1%	6%	1%	-7%	0.6%
O=C(Nc1cccc(S(=O)(=O)N2CCOCC2)c1)c1ccc2ccccc2n1	nt	nt	4%	-1%	nt	-13%	-7%	nt
COc1ccc(S(=O)(=O)N(C)C)cc1NC(=O)Cc1ccc(S(=O)(=O)N2CCOCC2)s1	5%	nt	nt	-6%	?	24%	-11%	nt
Brc1ccc(-c2nn3c(-c4ccccn4)nnc3s2)o1	-19%	-8%	-45%	-6%	?	1%	-8%	2.1%
N#Cc1nc(COc2ccccc2)oc1NCCCn1ccnc1	2%	-3%	3%	1%	?	-14%	9%	1.5%
Cc1ccc(S(=O)(=O)N2CCCOC2CNC(=O)C(=O)NCc2cccs2)cc1 (stereo not drawn)	?	-1%	-16%	5%	?	2%	-18%	-1.3%
O=C1c2cccnc2C(O)N1Cc1ccccc1 (stereo not drawn)	14%	-4%	11%	-3%	-3%	7%	-4%	2.5%
COC(=O)C1=C(C)Nc2ncnn2C1c1ccc(C)o1 (stereo not drawn)	-1%	0%	-8%	4%	0%	2%	-3%	-4.1%
Cc1cc(C(=O)Nc2cccc([N+](=O)[O-])c2)c(C)o1	?	-8%	9%	-14%	1%	9%	0%	-5.8%
COc1cc(OC)c(OC)cc1CN1CCCC(C(=O)N2CCCC2)C1 (stereo not drawn)	?	nt	-2%	-1%	1%	-12%	-2%	nt
CCOc1ccc(NC(=O)Cn2nnc(C(=O)NCc3ccccc3OC)c2N)cc1	1%	-1%	-1%	6%	?	17%	17%	1.9%
O=C(CSc1nc2ccccc2c(=O)n1-c1ccc(Cl)cc1)c1ccco1	?	?	8%	1%	11%	19%	-18%	0.3%
O=C(c1ccc(COCC(F)(F)F)o1)N1CCCCCC1	20%	-3%	-7%	5%	9%	16%	20%	2.4%
COC(=O)[C@@H]1C[C@H]2CC[C@H](O)C[C@H]2N1Cc1ccc(-c2ccccc2)cc1	nt	-4%	2%	3%	nt	-2%	-19%	1.9%
COc1ccc(NC(=O)CSc2ccc3c(c2)OCCO3)cc1S(N)(=O)=O	-1%[46.1 µM]	nt	nt	-1%	2%[46.1 µM]	1%	-18%	nt
Cc1ccc2cc3cc(C(=O)N4CCC5(CC4)OCCO5)oc3nc2c1	?	-2%	-11%	1%	6%	-4%	62%[activator]	-2.2%

Ordered by count of non-hydrogen atoms (low to high): 11 of the compounds above
SMILES	MARV entry inh	Cruzain noTriton	NS1 inh	SARS PLpro yeast	LASV entry inh	RE007 growth inh	2A StopGo	Cruzain Triton
O=C1c2cccnc2C(O)N1Cc1ccccc1 (stereo not drawn)	14%	-4%	11%	-3%	-3%	7%	-4%	2.5%
Cc1cc(=O)[nH]c(Nc2cccc(C(F)(F)F)c2)n1	-28%	-15%	9%	1%	-9%	-12%	-8%	-1.1%
CNC(=O)CN(c1ccc2c(c1)OCCO2)S(C)(=O)=O	2%	-9%	7%	6%	17%	15%	-9%	2.2%
CCCN1C(=O)c2cc(C(=O)NC3CCCC3)ccc2C1O (stereo not drawn)	nt	-1%	0%	2%	nt	4%	3%	4.2%
N#Cc1nc(COc2ccccc2)oc1NCCCn1ccnc1	2%	-3%	3%	1%	?	-14%	9%	1.5%
Cc1ccc2cc3cc(C(=O)N4CCC5(CC4)OCCO5)oc3nc2c1	?	-2%	-11%	1%	6%	-4%	62%[activator]	-2.2%
COC(=O)[C@@H]1C[C@H]2CC[C@H](O)C[C@H]2N1Cc1ccc(-c2ccccc2)cc1	nt	-4%	2%	3%	nt	-2%	-19%	1.9%
CN(C)S(=O)(=O)N1CCN(CC(O)COc2ccc(-c3ccccc3)cc2)CC1 (stereo not drawn)	nt	nt	-36%	3%	nt	2%	?	nt
COc1ccc(OC)c(C2CC(=O)N3CN(c4cccc(Cl)c4)CSC3=C2C#N)c1 (stereo not drawn)	5%	?	-11%	2%	nt	-11%	0%	-6.0%
CCOc1ccc(NC(=O)Cn2nnc(C(=O)NCc3ccccc3OC)c2N)cc1	1%	-1%	-1%	6%	?	17%	17%	1.9%
COc1ccc(S(=O)(=O)N(C)C)cc1NC(=O)Cc1ccc(S(=O)(=O)N2CCOCC2)s1	5%	nt	nt	-6%	?	24%	-11%	nt

(cont.)
SMILES	MARV entry inh	Cruzain noTriton	NS1 inh	SARS PLpro yeast	LASV entry inh	RE007 growth inh	2A StopGo	Cruzain Triton
Cc1cc(C)c2c(N)c(C(=O)c3ccccc3Cl)sc2n1	?	nt	-1%	0%	-15%	1%	-11%	nt
CN1CCN(C(=S)C(=O)Nc2ccccc2)CC1	15%[46.1 µM]	nt	9%	0%	0%	17%	2%	nt
CCOC(=O)c1nnc(-c2ccc(C)cc2)nc1Oc1ccccc1Cl	-25%	6%	0%	-3%	?	2%	?	-0.8%
Cc1ccc(C(C(=O)NC2CCCC2)N(Cc2ccc3c(c2)OCO3)C(=O)Cc2cccs2)cc1 (stereo not drawn)	-6%	-6%	4%	-2%	?	2%	13%	-2.6%
CCc1ccccc1NC(=O)c1cnc2scc(C)n2c1=O	nt	-17%	-34%	13%	nt	7%	35%[activator]	-12%
COc1ccc(CCC(C)N2CCC(Oc3ccc(C(=O)N4CCCC4)cc3)CC2)cc1 (stereo not drawn)	?	nt	?	8%	-30%	-3%	15%	nt
O=C(O)Cn1c(=O)c2c(c3ccccc31)CCC2	3%[46.1 µM]	nt	2%	1%	-24%[46.1 µM]	-7%	1%	nt
COc1ccccc1OCC(=O)NCC1(N(C)C)CCCCC1	-4%[46.1 µM]	-8%	nt	nt	7%[46.1 µM]	nt	-3%	-0.6%
CCC(C)NC(=O)c1cc(OC)c(OC)c(OC)c1 (stereo not drawn)	-4%	1%	-4%	-2%	-12%	0%	11%	7.0%
CC(C)CC(=O)Nc1c2c(nn1-c1ccc(F)cc1)CS(=O)C2 (stereo not drawn)	nt	nt	-8%	-7%	nt	2%	-17%	nt
O=C(CCCN1CCC(c2ccccc2)C1)c1ccc2c(c1)OCCO2 (stereo not drawn)	?	11%	-3%	-16%	-11%	0%	nt	-0.2%
Cc1ccc(-c2noc(CCC(=O)NCCN3CCN(Cc4ccccc4)CC3)n2)cc1	?	9%	-11%	-6%	3%	-13%	-23%	1.6%
CCc1cccc(-n2nnc(-c3nsc(NC(=O)c4ccc(C)cc4)n3)c2C)c1	nt	?	nt	nt	-19%[46.1 µM]	nt	-22%	4.0%
COc1ccc(C(=O)NCC(C)(c2ccccc2)c2ccccc2)cc1S(=O)(=O)N1CCOCC1	?	nt	nt	nt	-23%	-18%	7%	nt
COc1ccc(Cl)cc1NC(=O)c1cn(C2CCCC2)c(=O)c2c1c1ccccc1n2C	?	6%	nt	nt	20%[46.1 µM]	nt	0%	0.1%
Cn1cnc2c(=O)oc3ccc(S(=O)(=O)N4CCN(c5cccc(Cl)c5)CC4)cc3c21	nt	-2%	nt	nt	-3%[46.1 µM]	nt	-13%	-2.2%
Cc1ccccc1CCNC(=O)C1CCN(c2nc3ccccc3nc2C(F)(F)F)CC1	nt	-9%	nt	nt	-2%[46.1 µM]	nt	-23%	3.5%
COc1ccc2oc(C(=O)OCC(=O)N(C)C3CCS(=O)(=O)C3)c(C)c2c1 (stereo not drawn)	16%	nt	nt	-11%	-11%	3%	8%	nt
Cc1cc(N2CCN(C(=O)c3ccco3)CC2)n2nc(-c3cccc(F)c3)cc2n1	?	?	-39%	-3%	-1%	-11%	?	-8.9%
CCCNC(=O)N1CCC(Cc2ccccc2)CC1	nt	nt	-42%	-9%	nt	25%	2%	nt
Cc1nn(C)c(C)c1Nc1ccc(N2C(=O)C3CC=CCC3C2=O)cc1[N+](=O)[O-] (stereo not drawn)	?	nt	nt	-3%	-28%[46.1 µM]	7%	0%	nt
O=C(/C=C/c1ccccc1F)c1cccc([N+](=O)[O-])c1	?	?	-49%	-6%	?	-21%	14%	-8.7%
NC(=O)C1(N2CCCCC2)CCN(C(=O)Nc2ccc(F)cc2)CC1	-5%[46.1 µM]	10%	nt	nt	?	nt	-19%	0.3%
